Screening results as filed in PubChem.
Beta2AR agonist: agonists of human beta-2 adrenergic receptor inducing internalization | P07550 | Am2.2-beta2AR cells, FAP receptor internalization, flow cytometry; reference of the scale not given here | response, % (concentration not given with the values) | 340,000 tested, 0.43% active | AID 504454;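 active = response above a set limit, near 3 SD of response in nonfluorescent compounds, cut at about 42% in these data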;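 note: stock transfer was 100 nL into about 11 µL; a reference agonist was the positive control; negative values mostly stem from fluorescent compounds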
A1 inh: inhibitors of the anti-apoptotic protein A1, read as caspase activation; MEF A1-2A-BIM cells, Caspase-Glo 3/7 luminescence, 3 h; percent of clofoctol response, vehicle zero; AID 2462; 330,000 tested, 0.066% active; caspase activation, % (test concentration not listed);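 active = over half of replicate activation scores above 10%, or exactly half above 10 with the replicate mean above 10; inconclusive = replicate mean below 10 yet half the replicates above 10; inactive = over half of replicates below 10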;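 note: wells of about 30 µL received 50 nL stock; many hits fall short of the cut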
HNF4A DNA FP: change in binding of human HNF4 alpha to DNA; P41235; HNF4a-FITC DNA binding, fluorescence polarization, 1 h; activity change, % at 10 µM; 360,000 tested, 0.3% active; in the data active = activity change above about 30%, passing the limit was not always enough;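 note: controls were the assay level and a saturating level of protein; the project sought stronger binding though the title names inhibitors; some compounds called inactive have numbers as strong as hits; positive values seem to mean higher polarization but the record does not say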
Target sequence (P41235 whole entry, looked up): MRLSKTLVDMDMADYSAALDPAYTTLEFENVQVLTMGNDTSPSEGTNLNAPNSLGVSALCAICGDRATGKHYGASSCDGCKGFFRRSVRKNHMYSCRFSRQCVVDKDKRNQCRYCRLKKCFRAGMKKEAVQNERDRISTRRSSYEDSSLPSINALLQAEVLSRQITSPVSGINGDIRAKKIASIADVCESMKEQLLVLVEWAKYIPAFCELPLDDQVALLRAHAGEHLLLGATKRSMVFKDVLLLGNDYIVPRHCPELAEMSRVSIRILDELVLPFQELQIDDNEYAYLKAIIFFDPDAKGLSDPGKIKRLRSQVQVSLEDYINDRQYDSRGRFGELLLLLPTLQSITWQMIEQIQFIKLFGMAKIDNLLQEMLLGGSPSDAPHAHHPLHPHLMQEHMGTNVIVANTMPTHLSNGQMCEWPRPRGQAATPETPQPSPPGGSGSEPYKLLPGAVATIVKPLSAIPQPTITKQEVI
Ecoli growth: E. coli growth inhibition | Escherichia coli growth, OD600, 23 h; hits give low values | OD600 absorbance (no concentration beside the values) | 330,000 tested, 0.21% active | AID 1053175;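 active = OD600 absorbance below the run mean of sample wells minus 3.6 SD, in any replicate, cut at about 0.56 in these data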;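 note: stock transfer was 300 nL into about 60 µL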
UCH37 inh: blocks the human deubiquitinase UCH37; Q9Y5K5; purified proteasome/UCH37, Ub-AMC cleavage fluorescence; inhibition, % (no concentration beside the values); 330,000 tested, 0.33% active; AID 588478;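 active = mean of two replicates above 20%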;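 note: 0% = compound-free wells with enzyme and 100% = wells lacking proteasome; stock transfer was 100 nL into about 20 µL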
Target sequence (Q9Y5K5 whole entry, looked up): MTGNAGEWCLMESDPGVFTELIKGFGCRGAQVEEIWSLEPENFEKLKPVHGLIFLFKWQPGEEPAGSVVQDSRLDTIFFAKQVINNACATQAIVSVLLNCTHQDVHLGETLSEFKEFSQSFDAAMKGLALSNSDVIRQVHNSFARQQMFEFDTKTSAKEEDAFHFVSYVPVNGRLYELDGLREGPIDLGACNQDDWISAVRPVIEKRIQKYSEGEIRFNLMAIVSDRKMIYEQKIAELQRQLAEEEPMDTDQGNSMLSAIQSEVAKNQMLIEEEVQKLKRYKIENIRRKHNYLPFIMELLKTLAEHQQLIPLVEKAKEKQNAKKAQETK
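Test system – human UCH37 enzyme supplied as purified proteasome complex · Incubation – 30 min preincubation with enzyme, 25 min cleavage at room temperature · Detection – AMC fluorescence from Ub-AMC cleavage, excitation 355 nm, emission 460 nm · Benchmarks – no-proteasome wells (full inhibition) and compound-free wells (no inhibition)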
Vif A3G: HIV-1 Vif–A3G interaction blockers – biochemical, TR-FRET, GST-Vif 1-94, biotin-A3G peptide, dose response retest, primary screen (AID 1117319). inhibition, %; hits with a dose series show IC50 in µM. 260,000 tested, 0.57% active. TR-FRET GST-Vif / biotin-A3G peptide binding; higher % means a stronger effect; test concentration not given here; strong numbers were not always called active;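 active = above the screen mean plus three standard deviations and confirmed in dose response; inconclusive = results disagree or hit not tested in dose response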;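 note: Vif residues 1-94 fused to GST binding biotinylated APOBEC3G peptide 110-148; 0% = full assay without inhibitor and 100% = GST in place of GST-Vif; retest series ran down from 100 µM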
LANA-H2B inh: blocks KSHV LANA binding to histone H2A/H2B; cell-free LANA-H2A/H2B peptide, fluorescence polarization; inhibition, % (no concentration beside the values); 320,000 tested, 0.6% active; Q9QR71; in the data active = inhibition mostly above about 10%, no sharp cut-off; inactive = mostly below about 6.7%;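 note: stock transfer was 7.5 nL into about 10 µL; 0% = median of vehicle wells and 100% = median of positive control wells; one replicate is shown; the record names a cut of 25% in any replicate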
Numbers without * were called inactive; i = inactive; ? = inconclusive; · = no result given; & = joins results of further samples. An unsorted share of the library; overall some 2.1% were active at least once.

Start of the data: the first two entries, to show the layout:
SMILES	Beta2AR agonist	A1 inh	HNF4A DNA FP	Ecoli growth	UCH37 inh	Vif A3G	LANA-H2B inh
CCOC(=O)C(Cc1c[nH]c2ccccc12)NC(=O)c1ccccc1Br (stereo unspecified)	22	-0.4	-0.2	0.62	6.3	-5%	-2.4
C=C(C)C(=O)Nc1cccc(C2=NOC3(C2)C[C@@H](C(N)=O)N(C(=O)CCCCC)C3)c1 (stereo partly specified)	-9	0.3	·	·	1.0	0.22µM*	0.5

Main list (from the top)
SMILES	Beta2AR agonist	A1 inh	HNF4A DNA FP	Ecoli growth	UCH37 inh	Vif A3G	LANA-H2B inh
CCOC(=O)C(Cc1c[nH]c2ccccc12)NC(=O)c1ccccc1Br (stereo unspecified)	22	-0.4	-0.2	0.62	6.3	-5%	-2.4
C=C(C)C(=O)Nc1cccc(C2=NOC3(C2)C[C@@H](C(N)=O)N(C(=O)CCCCC)C3)c1 (stereo partly specified)	-9	0.3	·	·	1.0	0.22µM*	0.5
COc1ccc(-c2nc3ccccc3o2)cc1NC(=O)CSc1ccc(Cl)cc1	-3	1.0	-3.3	0.71	-36	-23%	-0.4
COc1cc(NC(=O)c2ccc([N+](=O)[O-])o2)ccc1NC(=O)c1cccs1	3	0.1	-5.8	0.61	5.0	5%	-6.6
COc1cc(/C=C(\C#N)C(=O)N2CCOCC2)ccc1OCc1ccccc1	5	0.0	-0.9	0.71	6.5	7%	-4.8
OCc1cccc[n+]1CCc1ccccc1	11	0.3	-4.1	0.65	3.3	·	2.4
CC1Cc2cc(/C(O)=C3/C(=O)C(=O)N(Cc4ccncc4)C3c3ccc(N(C)C)cc3)ccc2O1 (stereo unspecified)	0	-0.2	-1.8	·	·	·	-1.0
CCN(CC)c1ccc(C(=O)NNC(=O)c2ccc3c(=O)n4c(nc3c2)CCC4)cc1	8	1.2	-4.5	0.71	2.1	-14%	-3.2
C/C(CC(=O)Nc1cccc(C(F)(F)F)c1)=N\NC(=O)C1CCCCC1	-2	0.2	-5.2	·	·	?	-6.4
CCCOc1ccc2cc(-c3ccccn3)c(=O)oc2c1	-3	-6.1	-3.3	0.72	i	-12%	1.3
O=C(Nc1nc2ccccc2[nH]1)c1cccc([N+](=O)[O-])c1	-11	-4.7	5.3	·	·	?	3.8
COc1ccc(N2CCN(C(=O)CCS(=O)(=O)c3ccc4c(c3)NC(=O)CO4)CC2)cc1	8	0.2	1.5	0.67	3.1	-8%	-2.1
CCOc1ccc(NC(C)C(=O)N/N=C/c2ccc([N+](=O)[O-])cc2)cc1 (stereo unspecified)	·	0.9	·	·	·	-11%	6.7
CC(C)Cc1c2c([nH]c(=S)c1C#N)CCCC2	-2	0.7	-2.6	0.68	3.9	19%	-0.7
Cc1ccc(N2CC(C(=O)Nc3nnc(SCCC4OCCO4)s3)CC2=O)cc1C (stereo unspecified)	5	0.0	2.1	0.71	-1.7	12%	-0.5
O=C(NNC(=O)c1cc(Cl)ccc1[N+](=O)[O-])c1csc(N2CCOCC2)n1	-2	0.2	-1.3	0.66	3.0	10%	0.1
N#C/C(=C\c1cc(Cl)ccc1O)C(=O)NC1CCCCC1	11	2.3	-2.6	0.76	3.7	?	-1.3
Cc1ccn(CCNC(=O)C2CCC(=O)N(Cc3ccc(Cl)cc3)C2)n1 (stereo unspecified)	6	-0.8	-1.4	0.66	1.0	8%	1.2
O=C(NCCN1CCOCC1)c1ccc2c(c1)N(Cc1ccc(F)cc1)C(=O)CS2	4	2.1	-1.4	0.73	1.6	-4%	1.5
Cc1c(Cl)c([N+](=O)[O-])nn1CCCC(=O)NCCc1ccccc1	6	0.9	0.7	0.69	3.2	25%	-1.0
O=C(NCc1ccccc1)C(C(=O)c1ccc(F)cc1)n1ccccc1=O (stereo unspecified)	2	1.9	5.9	0.72	-0.4	28%	3.4
O=C1CCc2ccc(NC(=O)C3CC3)cc2N1	9	-0.4	-2.2	0.71	3.0	?	-2.5
O=C([C@@H]1CC=C[C@@H]2CCN(C3CCCCC3)C(=O)[C@@H]21)N1CCN(c2ccccc2)CC1	4	0.3	1.5	·	3.3	·	1.6
Cc1nn(C)c(C)c1/C=N/NC(=O)CCn1cc([N+](=O)[O-])cn1	4	-0.1	1.3	·	·	·	0.4
CCOCCCNS(=O)(=O)Cc1ccccc1	1	-0.2	0.7	0.72	-0.3	2%	2.7
Cc1cc(C)n(C(=O)N(c2ccccc2)c2ccccc2)n1	16	-0.6	0.3	0.66	1.8	-7%	13
C=CCn1c(SCCN2CCCCC2)nc2c1c(=O)[nH]c(=O)n2C	5	-0.9	2.6	0.77	-0.3	2%	0.1
Cc1c(Cc2c(Cl)cccc2Cl)c(=O)ccn1C(C)c1ccccc1 (stereo unspecified)	-2	·	0.9	0.67	0.6	3%	·
CCCC(=O)NNc1c2ccccc2nc2ccccc12	-23	1.1	3.0	0.7	6.9	-4%	-0.2
Cc1ccccc1NC(=O)C1CCCN(S(=O)(=O)c2c(C)noc2C)C1 (stereo unspecified)	6	0.1	3.5	0.72	0.7	-6%	-1.7
Cc1ccccc1N1CCN(C2=NC(=O)/C(=C\c3cccs3)S2)CC1	-16	1.3	-3.2	·	5.8	23%	-1.2
CCOC(=O)N1CCN(S(=O)(=O)c2ccc(C(=O)N(CCCN(C)C)c3nc4c(C)c(C)ccc4s3)cc2)CC1	10	1.6	0.0	0.65	1.0	-8%	0.1
Cn1cnc(S(=O)(=O)N2CCN(c3cccc(C(F)(F)F)c3)CC2)c1	0	2.7	1.5	0.63	3.3	·	3.5
O=C(Cn1c2[n+](c3ccc(C(F)(F)F)cc31)CCCCC2)c1cccc([N+](=O)[O-])c1	-5	0.1	0.6	0.67	6.9	8%	-1.4
N#Cc1nc(-c2cccs2)oc1NCc1ccco1	-11	0.3	1.4	0.65	i	1%	16
N#Cc1c(NC(=O)CSc2ccccn2)oc(-c2ccccc2)c1-c1ccccc1	11	0.1	0.2	0.79	-1.2	-14%&1%	·
Cc1ccc(Nc2c([N+](=O)[O-])ccc3nonc23)c(C)c1	-1	-0.1	-0.9	0.67	1.4	·	3.1
COc1ccc(OCC(=O)Nc2ccc(NC(=O)c3cccs3)c(OC)c2)cc1	-14	-0.3	2.9	0.66	1.8	-12%	-0.6
O=C(NC1CCCC1)C1CCCN1S(=O)(=O)c1cccc2cccnc12 (stereo unspecified)	1	0.2	-1.6	0.74	5.6	-1%	-0.9
COc1ccc(CC(=O)NN2C(=O)c3ccccc3C2=O)cc1	4	0.0	1.4	0.69	4.6	-7%	1.0
O=C(CSc1ccc2nnc(-c3cccnc3)n2n1)NCc1ccco1	-1	0.9	2.3	0.71	1.1	14%	-3.7
CC(C)CCNC(=O)[C@H](CSCc1ccccc1)N1Cc2ccccc2C1=O	0	0.3	0.9	0.75	1.7	·	6.2
COc1ccc(CC(=O)NNc2ncnc3c2cnn3C)cc1OC	11	0.5	-0.2	0.66	0.4	3%	2.3
CCC(=Nc1ccccc1O)C1=C(O)CC(c2ccccc2)CC1=O (stereo unspecified)	-1	0.2	-0.2	0.68	4.2	-9%	5.2
COc1ccc(C)cc1NC(=O)c1ccc(-c2ccc(C(C)=O)cc2)o1	7	0.8	-2.4	0.71	-63	3%	-0.3
COc1ccc(OC)c(NC(=O)Cn2c(C)nc3ccccc3c2=O)c1	3	-0.4	0.7	0.73	0.9	-3%	1.4
Cc1ccccc1CNC(=O)C(=O)NCCC1CCCCN1S(=O)(=O)c1cccs1 (stereo unspecified)	3	0.0	4.7	0.7	-0.6	-2%	·
CC(Oc1ccc(-c2ccccc2)cc1)C(=O)N1CCOCC1 (stereo unspecified)	8	-1.6	-2.1	0.74	2.7	?	0.1
C#CCOC(=O)c1ccccc1C(=O)O	-3	0.7	-3.5	0.75	-2.3	5%	0.8
CCn1cc(CNC(=O)c2c(-c3c(Cl)cccc3Cl)noc2C)c(C)n1	5	0.7	4.6	0.68	0.6	·	0.0
C[C@H]1CN=C(Nc2ccccc2)N1CC1CCC1	-3	1.7	0.7	·	3.9	·	-5.2
CCCCn1c(N)c(N(CC(C)C)C(=O)CCNC(=O)c2ccc([N+](=O)[O-])cc2)c(=O)[nH]c1=O	0	·	0.2	0.66	1.2	5%	·
ClCCn1cnc2c(SCc3ccccc3Cl)ncnc21	-2	·	3.6	0.64	3.4	-2%	·
Cc1ccc(C(=O)O)cc1NC(=O)CSc1ncnc2sc3c(c12)CCC3	-4	0.9	-5.1	0.67	2.6	3%	0.2
COc1cc(/C=N/NC(=O)c2ccncc2)ccc1OC(=O)c1cccc(Br)c1	4	-0.6	0.9	·	·	5%	4.9
O=C(CSc1ccc(S(=O)(=O)N2CCCC2)cn1)Nc1ccc([N+](=O)[O-])cc1C(F)(F)F	-5	·	-1.5	0.67	0.4	·	·
Cc1c(C(=O)NCCSCc2c(F)cccc2Cl)cnn1-c1ccc(Cl)cc1	-2	1.0	-4.1	·	·	0%	1.4
O=C(COC(=O)CNC(=O)c1ccccc1)Nc1ccc2c(c1)OCO2	3	1.4	1.7	0.62	2.4	1%	-4.7
CN(C(=O)COC(=O)c1cc([N+](=O)[O-])ccc1N1CCCC1)C1CCS(=O)(=O)C1 (stereo unspecified)	-6	-0.1	0.9	0.73	9.3	17%	5.7
CC(C)(C)NC(=O)CSc1nc(-c2ccccc2)c(-c2ccccc2)[nH]1	4	-0.2	-3.6	0.74	-0.2	1%	-1.8

Fetched by structure from the list above:
SMILES	Beta2AR agonist	A1 inh	HNF4A DNA FP	Ecoli growth	UCH37 inh	Vif A3G	LANA-H2B inh
CCCCn1c(N)c(N(CC(C)C)C(=O)CCNC(=O)c2ccc([N+](=O)[O-])cc2)c(=O)[nH]c1=O	0	·	0.2	0.66	1.2	5%	·
C#CCOC(=O)c1ccccc1C(=O)O	-3	0.7	-3.5	0.75	-2.3	5%	0.8
CN(C(=O)COC(=O)c1cc([N+](=O)[O-])ccc1N1CCCC1)C1CCS(=O)(=O)C1 (stereo unspecified)	-6	-0.1	0.9	0.73	9.3	17%	5.7
CC(C)(C)NC(=O)CSc1nc(-c2ccccc2)c(-c2ccccc2)[nH]1	4	-0.2	-3.6	0.74	-0.2	1%	-1.8
O=C(COC(=O)CNC(=O)c1ccccc1)Nc1ccc2c(c1)OCO2	3	1.4	1.7	0.62	2.4	1%	-4.7

Next results follow:
SMILES	Beta2AR agonist	A1 inh	HNF4A DNA FP	Ecoli growth	UCH37 inh	Vif A3G	LANA-H2B inh
COc1ccccc1CNC(=O)c1ccc(N(C)S(=O)(=O)c2ccc(C)cc2)cc1	-3	0.0	0.5	·	·	·	-1.0
Nc1cc(C(=O)OCC(=O)N2CCCC2=O)ccc1Cl	7	-1.7	1.9	0.66	-5.7	-2%	-8.8
O=C(N/N=C/c1cccs1)c1cc(-c2ccc3ccccc3c2)n[nH]1	7	0.4	-2.4	·	·	6%	-3.4
O=C(COc1ccc(S(=O)(=O)N2CCCC2)cc1[N+](=O)[O-])N1CCCC1	4	·	-0.1	0.69	4.0	-4%	·
O=C(C1CC1)N1CCc2cc(S(=O)(=O)N3CCOCC3)ccc21	-11	0.4	1.0	0.67	0.2	1%	-0.3
CC1(C)CC(=O)c2cc(NC(=O)c3ccc(F)cc3)c(=O)oc2C1	-10	-1.0	0.6	0.7	-1.2	·	5.7
CCCSc1nc(O)c(C(c2ccc(OC)c(O)c2)c2c(O)nc(SCCC)n(C)c2=O)c(=O)n1C	2	-0.8	-1.3	0.69	-0.4	8%	2.1
O=C1c2ccccc2C(=O)N1CCCCSc1nc2ccccc2o1	-1	0.3	8.9	0.79	1.8	19%	-0.2
CC1CN(c2oc(COc3ccc(Cl)cc3Cl)nc2C#N)CC(C)O1 (stereo unspecified)	-10	0.2	-0.9	0.73	-4.4	29%	-2.2
